# Bead autofluor: counter-screen for toxin protease inhibitors: compound fluorescence | compound autofluorescence counterscreen, microsphere flow cytometry; stronger effect = higher value | fluorescence intensity (test concentration not listed) | 360,000 tested, 3.1% active | AID 624483;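 active = at least 3 SD above the mean of all compounds, about 16000 in these data; inconclusive = too few beads counted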;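 also: 100 nL of 1 mM stock went into each well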
# Mtb hypoxia rep: Mtb hypoxia fluorescent reporter inhibition | 300,000 tested, 0.1% active | AID 1159583 | fluorescence inhibition, % (test concentration not listed) | M. tuberculosis hypoxia-regulated fluorescent reporter, fluorescence;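 active = 35 to 45% if threefold the growth effect, above 45% if 1.5-fold the growth effect; inactive = the rest, general growth blockers included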;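 also: wells of about 50 µL received 100 nL stock; 0% = vehicle wells and 100% = reference inhibitor wells; whole bacteria with a GFP reporter of the hypoxia response; strong numbers were not always called active; many hits fall short of the cut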
# Sa ugtP lethal: growth inhibition of S. aureus ugtP deletion strain; growth inhibition, % (concentration not given with the values); AID 1259309; 330,000 tested, 0.54% active; S. aureus RN4220 ugtP deletion, OD600 growth, 16 h; some inactives read as strong as hits;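 active = z-score under -3 and OD600 up to 0.15 on both plates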;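 also: plate controls were untreated wells for no effect and antibiotic for full effect; wells of about 80 µL received 100 nL stock; the first replicate is given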
# BJeLR viability: kills HRASV12-expressing BJeLR cells; BJeLR (HRASV12) viability, CellTiter-Glo ATP luminescence, 48 h; reference of the scale not given here; AID 1554; 300,000 tested, 0.17% active; inhibition, % (no concentration beside the values);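 active = replicate mean above 50%; inconclusive = above 50% but judged a plate artefact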;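 also: 50 nL library stock added to about 25 µL; numbers are from one replicate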
# Sa RN4220 lethal: S. aureus RN4220 growth inhibition; OD600, 16 h; inhibition, % (concentration not given with the values); 330,000 tested, 0.33% active; AID 1259311;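 active = z-score of -3 or lower and OD600 up to 0.18 on both plates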;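 also: plate controls were untreated cells for no effect and reference antibiotic for full effect; stock transfer was 100 nL into about 80 µL; one replicate is shown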
# PrP 5UTR inh: suppresses PrP 5' UTR mRNA reporter expression. cell-based PrP 5' UTR mRNA reporter, plate reader. inhibition, % (test concentration not listed). 340,000 tested, 0.35% active. AID 488862;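 active = every replicate at 50% or more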;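 also: 0 = median of the neutral control wells; tested in H4 reporter cells; numbers are from one replicate; inactives centre near -14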
# Mtb hypoxia rep growth: further read-out of Mtb hypoxia rep, marked with its call; growth inhibition, %; measured here: M. tuberculosis growth (absorbance);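 0% = vehicle and 100% = reference antibiotic; read after six days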
# Numbers without * were called inactive; u = inconclusive; x = no result given.
SMILES,Bead autofluor,Mtb hypoxia rep,Mtb hypoxia rep growth,Sa ugtP lethal,BJeLR viability,Sa RN4220 lethal,PrP 5UTR inh
CN(C)C(=O)c1cc(F)ccc1Sc1cc(Cl)ccc1Cl,4266,x,x,11,5,1.4,-19
O=C(O)Cc1ccc(Nc2cnn(C34CC5CC(CC(CC(=O)O)(C5)C3)C4)c(=O)c2Cl)cc1,4657,-5,-5,1,12,2.9,x
O=C(Nc1cc(Cl)cc(Cl)c1)C(NCCCO)c1ccccc1 (stereo not given),x,14,-1,3,5,0.4,x
CN(C)S(=O)(=O)c1cccc(NC(=O)Cc2ccsc2)c1,5201,-2,-9,1,-1,3.5,-6
Cc1ccc(C(=O)Nc2nc(C(C)(C)C)cs2)s1,3078,-3,-4,-10,15,7.1,-66
O=C(CSc1nc(N2CCOCC2)nc(N2CCOCC2)n1)Nc1ccc(Cl)cc1Cl,5923,5,9,-7,-6,1.1,-24
O=C(CCc1ccccc1)NCC(=O)N/N=C/c1ccc2c(c1)OCO2,2006,x,x,x,-5,x,-32
Cc1nnc(C)n1/N=C/c1cc2ccccc2nc1Cl,3505,x,x,x,6,x,-19
O=C(Nc1ccc(Cl)cc1)N(Cc1cccnc1)Cc1ccco1,9511,8,4,-4,7,-1.8,-2
CCOC(=O)C1=CCC(c2cc(OC)c(OC)c(OC)c2)N(S(=O)(=O)c2ccc(C)cc2)C1C(=O)OCC (stereo not given),x,10,11,-1,x,9.0,x
COc1ccc(NS(=O)(=O)c2cc(NC(=O)/C=C/c3cc(OC)ccc3OC)ccc2N2CCCCC2)cc1,2104,1,8,-7,-16,2.4,4
CCCCC1=CC2=C(c3ccco3)C(=O)C(C)(OC(=O)c3ccc(OC)cc3)C(=O)C2=CN1Cc1ccco1 (stereo not given),3599,x,x,x,-9,x,-19
CC1(C)CNC(=O)c2sc(NC(=O)CN3CCOCC3)nc2C1,3846,3,7,4,6,4.0,-22
Cc1nc(CS(=O)(=O)c2ccc(Cl)cc2)sc1C(=O)O,3371,1,3,5,-10,2.3,-22
CC(C)(C)N(CC(=O)NC1CCCCC1)C(=O)CS(=O)CC(=O)Nc1ccc(F)cc1 (stereo not given),3468,-5,-5,0,-2,3.6,-11
O=C(NN=Cc1cccc(O)c1)C(=O)N1CCCCCC1,x,-9,1,0,x,0.2,x
CC(C=Cc1ccccc1)=NNC(=O)CNC(=O)c1ccccc1F,x,0,0,-1,x,-0.4,x
COc1ccc(C(=O)N/N=C/c2cccc3cccnc23)cc1,3335,x,x,x,-3,x,-13
COc1ccc(CCn2c(=N)c(S(=O)(=O)c3ccc(C)cc3)cc3c(=O)n4ccccc4nc32)cc1,5543,3,-3,-17,-14,0.4,-16
Cc1cccn2c(CN(C)CC3CCCCO3)c(C(=O)N3CCCCC3)nc12 (stereo not given),3224,4,10,2,-4,3.8,-37

# Entries above that contain a furan ring, fused or not:
SMILES,Bead autofluor,Mtb hypoxia rep,Mtb hypoxia rep growth,Sa ugtP lethal,BJeLR viability,Sa RN4220 lethal,PrP 5UTR inh
O=C(Nc1ccc(Cl)cc1)N(Cc1cccnc1)Cc1ccco1,9511,8,4,-4,7,-1.8,-2
CCCCC1=CC2=C(c3ccco3)C(=O)C(C)(OC(=O)c3ccc(OC)cc3)C(=O)C2=CN1Cc1ccco1 (stereo not given),3599,x,x,x,-9,x,-19

# (more compounds)
SMILES,Bead autofluor,Mtb hypoxia rep,Mtb hypoxia rep growth,Sa ugtP lethal,BJeLR viability,Sa RN4220 lethal,PrP 5UTR inh
CC(C)=C(NC(=O)c1ccccc1)C(=O)NCCCC(=O)O,7821,4,-1,2,-3,-1.5,-14
CC1=Nc2ccccc2/C1=C/c1c(O)[nH]c(=O)[nH]c1=O,3336,-1,-7,0,5,2.3,-38
COc1ccc(CC(=O)Nc2ccccc2C(=O)N2CCOCC2)cc1,2413,3,1,17,-13,3.6,-16
CCN1CCN(c2ncc(C(=O)Nc3cc(Cl)ccc3OC)c3ccccc23)CC1,4238,-4,33,-11,14,2.8,-21
Cc1ccc(S(=O)(=O)N2CCC(CN3C(=O)c4cccc5cccc(c45)C3=O)CC2)cc1,4126,x,x,8,-11,-8.1,-17
CCOC(=O)C1CCN(C2=NC(=O)/C(=C/c3ccc(OC)c(OC)c3)S2)CC1,3072,-15,2,1,-13,4.9,-31
COc1ccc(C2CC(=O)C=C(c3ccc(C(F)(F)F)c(C(F)(F)F)c3)C2)cc1OC (stereo not given),x,1,10,22,x,11,x
Cn1c(=O)c(/C=C/c2ccc(F)cc2)nc2ccccc21,4159,-5,7,3,4,4.6,-74
COc1ccc(COCC(O)CN2CC(C)OC(C)C2)cc1OC (stereo not given),9673,3,6,-1,1,0.3,8
CC(=O)c1ccc(NC(=O)[C@@]2(CC(=O)O)CC(/C=C/c3ccccc3)=NO2)cc1,3567,-3,-1,-5,-4,-1.4,-12
NC(=O)CC(NC(=O)Cc1ccc(Br)cc1)c1ccc(NC2CCC2)c([N+](=O)[O-])c1 (stereo not given),2986,17,4,12,5,7.7,-7
CCOC(=O)c1[nH]cnc1N=Nc1c(O)ccc2ccccc12,2589,9,22,-14,21,11,5
COc1ccc(C=NNC(=O)c2ccccc2[N+](=O)[O-])cc1CN1CCc2cc(OC)c(OC)cc2C1C (stereo not given),x,6,3,3,x,7.0,x
CC1CC(C)CN(C(=O)c2cccc(S(=O)(=O)N(C)c3ccccc3)c2)C1 (stereo not given),u,-8,7,6,x,5.1,-28
CN(C)c1ccc(S(=O)(=O)NCC(=O)NCCC2=CCCCC2)cc1[N+](=O)[O-],4109,15,7,8,x,8.9,-13
C=CCn1c(SCc2nc3ccccc3[nH]2)nnc1-c1ccncc1,10001,4,2,7,4,2.7,-3
CCCCOC(=O)C1CCC[C@@H](C)N1 (stereo not given in full),4925,x,x,1,4,-3.0,-9
O=C1CC(C(=O)O)(c2ccccc2)c2cccc(F)c21 (stereo not given),2987,12,-1,0,9,1.0,-16
O=C(NCc1nc(-c2ccc(C(F)(F)F)cc2)no1)c1cccs1,3976,0,0,5,-4,0.2,-28
CC(=O)Oc1ccccc1C(=O)Oc1ccc(/C=N/n2cnnc2)cc1,9938,x,x,x,-3,x,-13

# 18 structures from above, ordered by count of non-hydrogen atoms, ascending.
SMILES,Bead autofluor,Mtb hypoxia rep,Mtb hypoxia rep growth,Sa ugtP lethal,BJeLR viability,Sa RN4220 lethal,PrP 5UTR inh
CCCCOC(=O)C1CCC[C@@H](C)N1 (stereo not given in full),4925,x,x,1,4,-3.0,-9
Cc1ccc(C(=O)Nc2nc(C(C)(C)C)cs2)s1,3078,-3,-4,-10,15,7.1,-66
Cc1nnc(C)n1/N=C/c1cc2ccccc2nc1Cl,3505,x,x,x,6,x,-19
O=C(NN=Cc1cccc(O)c1)C(=O)N1CCCCCC1,x,-9,1,0,x,0.2,x
CCOC(=O)c1[nH]cnc1N=Nc1c(O)ccc2ccccc12,2589,9,22,-14,21,11,5
O=C(Nc1ccc(Cl)cc1)N(Cc1cccnc1)Cc1ccco1,9511,8,4,-4,7,-1.8,-2
CC(C=Cc1ccccc1)=NNC(=O)CNC(=O)c1ccccc1F,x,0,0,-1,x,-0.4,x
O=C(CCc1ccccc1)NCC(=O)N/N=C/c1ccc2c(c1)OCO2,2006,x,x,x,-5,x,-32
CC1CC(C)CN(C(=O)c2cccc(S(=O)(=O)N(C)c3ccccc3)c2)C1 (stereo not given),u,-8,7,6,x,5.1,-28
Cc1cccn2c(CN(C)CC3CCCCO3)c(C(=O)N3CCCCC3)nc12 (stereo not given),3224,4,10,2,-4,3.8,-37
CC(=O)c1ccc(NC(=O)[C@@]2(CC(=O)O)CC(/C=C/c3ccccc3)=NO2)cc1,3567,-3,-1,-5,-4,-1.4,-12
NC(=O)CC(NC(=O)Cc1ccc(Br)cc1)c1ccc(NC2CCC2)c([N+](=O)[O-])c1 (stereo not given),2986,17,4,12,5,7.7,-7
COc1ccc(C2CC(=O)C=C(c3ccc(C(F)(F)F)c(C(F)(F)F)c3)C2)cc1OC (stereo not given),x,1,10,22,x,11,x
Cc1ccc(S(=O)(=O)N2CCC(CN3C(=O)c4cccc5cccc(c45)C3=O)CC2)cc1,4126,x,x,8,-11,-8.1,-17
O=C(O)Cc1ccc(Nc2cnn(C34CC5CC(CC(CC(=O)O)(C5)C3)C4)c(=O)c2Cl)cc1,4657,-5,-5,1,12,2.9,x
COc1ccc(CCn2c(=N)c(S(=O)(=O)c3ccc(C)cc3)cc3c(=O)n4ccccc4nc32)cc1,5543,3,-3,-17,-14,0.4,-16
CCOC(=O)C1=CCC(c2cc(OC)c(OC)c(OC)c2)N(S(=O)(=O)c2ccc(C)cc2)C1C(=O)OCC (stereo not given),x,10,11,-1,x,9.0,x
COc1ccc(NS(=O)(=O)c2cc(NC(=O)/C=C/c3cc(OC)ccc3OC)ccc2N2CCCCC2)cc1,2104,1,8,-7,-16,2.4,4

# (further entries)
SMILES,Bead autofluor,Mtb hypoxia rep,Mtb hypoxia rep growth,Sa ugtP lethal,BJeLR viability,Sa RN4220 lethal,PrP 5UTR inh
CCOC(=O)C1C(=O)C=C(C)C(C(=O)OCC)C1c1cccc([N+](=O)[O-])c1 (stereo not given),4171,12,0,11,4,2.7,-31
COc1cc(OC)cc(-c2nc3ccccc3c(=O)n2OC(=O)c2ccc(C)c(C)c2)c1,1890,-10,0,2,2,2.9,-3
C/C(=N\NC(=O)OC(C)(C)C)c1cccc([N+](=O)[O-])c1,2207,x,x,x,11,x,-37
Brc1ccc(/C=C/C=NNc2nc3ccccc3s2)cc1,x,-1,4,-45,x,-5.9,x
CCOc1ccc(NC(=O)CNC(=O)c2ccc([N+](=O)[O-])cc2)cc1,4327,4,4,1,6,2.0,-3
C=CCNC(=O)c1ccc(NC(=O)C2=CSCCO2)cc1,5180,1,-4,8,34,3.1,-33
CC(C)(Cc1ccccc1)[N+]([O-])=Cc1ccccc1,x,17,29,-3,x,-2.8,x
Cc1ccccc1NC(c1cccc(Cl)c1)c1nnnn1C1CCCCC1 (stereo not given),10160,x,x,x,8,x,-24
Cc1ccccc1Cn1c2ccccc2c2cnn(CC(=O)NCCCN3CCN(C)CC3)c(=O)c21,5075,2,1,-2,-14,-1.4,-15
Cc1onc(C(=O)Nc2cccc(C(F)(F)F)c2)c1[N+](=O)[O-],4930,x,x,x,-1,x,-32
O=C(Nc1ccccc1)c1cccc(N2C(=O)C3C4C=CC(C5CC45)C3C2=O)c1 (stereo not given),5900,0,0,2,-15,4.9,-39
O=C(CCCN1C(=O)/C(=C\c2ccccc2)SC1=S)Nc1ccc(C(=O)O)cc1,5605,6,6,0,-5,2.5,4
Cc1ccc(S(=O)(=O)N(C)Cc2nc(-c3ccccn3)no2)cc1,2816,x,x,1,0,1.5,-10
CC(=O)NC1(C(F)(F)F)NC(=O)N(CCc2ccccc2)C1=O (stereo not given),3217,5,5,9,-2,3.3,-20
CCC(=O)N(C)/C=C1\Sc2ccccc2C1=O,2550,x,x,11,1,4.5,-38
O=C(CCCc1c[nH]c2ccccc12)NCc1cccs1,4282,-2,3,0,0,-0.2,-30
O=C(N/N=C/c1ccccc1)c1[nH]ncc1Br,2452,x,x,x,6,x,-45
COc1ccc(/C=C(\NC(=O)c2ccccc2)C(=O)N2CCCCC2)cc1OC,3717,7,1,6,-6,3.0,0
CCOc1cc(/C=C2\SC(=N)N(c3nonc3N)C2=O)ccc1OCCN1CCOCC1,4306,13,16,9,-2,6.6,-15
O=C(COc1ccc([N+](=O)[O-])cc1)N(C1CCCCC1)C1CCS(=O)(=O)C1 (stereo not given),x,8,-1,4,4,3.1,-9

# Screening data deposited in PubChem BioAssay by several laboratories.
